MT1-MMP act inh = inhibitors of human MT1-MMP activation | HT1080 RFP-PRO-GFP cells, GFP/RFP ratio fluorescence, overnight; percent of plate control window, DMSO zero | GFP/RFP ratio change, % at 20 µM | AID 651647 | P50281 | 0.061% of 360,000 active;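 active means GFP/RFP ratio change of at least 30% with cell ATP level not reduced by more than half and red fluorescence within 50% of control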; further: strong numbers were not always called active
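Test system: HT1080 RFP-PRO-GFP cells; Benchmarks: DMSO and RFP-L50D-GFP cell wells; Timing: cells overnight before dosing, compound overnight, 37 °C, 5% CO2; Compound: one 20 µM compound dose with 1% DMSO; Read-out: GFP/RFP fluorescence ratio.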
CSC inhib = blocks cancer stem cells | cancer stem cell-like cells viability, luminescence | inhibition, % at 7.5 µM | 1.1% of 300,000 active | AID 2717;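 active means mean at 75% or more and at least half the replicates too; tested in HMLE shEcad cells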;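 further: 0% = median of negative and 100% = median of positive control wells; the first replicate is given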
UUG fidelity = yeast start codon fidelity modulation; S. cerevisiae UUG-firefly luciferase reporter, luminescence/redox ratio; activity score, % at 18.7 µM; 0.13% of 350,000 active; AID 602363;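 active means replicate mean at a twofold rise or more, about +100% in these data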;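 further: firefly luciferase made from a UUG start codon reports start codon fidelity; reporter light over untreated wells divided by growth signal over untreated wells; some hits fall short of that in this replicate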
Env fusion inh = blocks HIV Env-driven cell-cell fusion | 1.1% of 360,000 active | HeLa-JRFL Env/CEM21 cell fusion, luciferase | inhibition, % at 12.3 µM;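 active means mean replicate inhibition score of at least 50 and every replicate individually at or above 50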;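 further: 0% = plate neutral controls and 100% = maraviroc near 300 nM; one replicate is shown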
eIF4H inh = inhibitors of RNA binding by human eIF4H. Q15056. eIF4H fluorescence polarization binding assay. inhibition, % at 35 µM. 0.94% of 290,000 active;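 active means 50% or more with normal probe brightness, or confirmed in later tests; about a fifth of its hits are not listed in these tables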;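 further: calls also rest on retests at 20 µM and on dose response follow-up; 0% = protein and probe with vehicle and 100% = probe without protein; strong numbers were not always called active; many hits fall short of the cut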
PABP polyA inh = blocks human PABP binding to poly(A) RNA | AID 2014 | P11940 | inhibition, % at 35 µM | fluorescence polarization | 1% of 290,000 active;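 active means 50% or more with normal probe brightness, or confirmed in later tests; about a fifth of its hits are not listed in these tables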;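 further: calls also rest on retests at 20 µM and on dose response follow-up; controls were probe without protein and protein plus probe with vehicle; some compounds called inactive have numbers as strong as hits; many hits fall short of the cut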
Rce1 inh = inhibitors of yeast Ras-converting enzyme; yeast membranes, quenched prenylated peptide cleavage fluorescence; AID 2563; 0.27% of 290,000 active; calls only;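 active means fall in fluorescence gain of 50% or more versus controls, with final raw signal at or below 3038400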;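 further: plate controls were neutral control wells for no effect and wells lacking membranes for full effect; tested at 10 µM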
Target sequence (Q03530 whole entry, looked up): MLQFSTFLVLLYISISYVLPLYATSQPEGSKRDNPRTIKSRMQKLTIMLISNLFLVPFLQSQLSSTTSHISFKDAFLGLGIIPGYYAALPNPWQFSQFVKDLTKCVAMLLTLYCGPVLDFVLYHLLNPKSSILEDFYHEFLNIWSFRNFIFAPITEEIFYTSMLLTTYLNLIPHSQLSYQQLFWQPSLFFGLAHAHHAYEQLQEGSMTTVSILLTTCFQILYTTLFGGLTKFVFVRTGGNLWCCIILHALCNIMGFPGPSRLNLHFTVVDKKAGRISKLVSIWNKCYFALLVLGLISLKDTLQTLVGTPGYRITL
eIF4H inh retest = second read-out of eIF4H inh, no call of its own (marks repeat the call); inhibition, %; compound at 20 µM; confirmation average;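 mean of two retest wells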
PABP polyA inh retest = second read-out of PABP polyA inh, no call of its own (marks repeat the call); inhibition, %; compound at 20 µM; confirmation repeats;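 mean of two retest wells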
MT1-MMP act inh RFP = also measured in MT1-MMP act inh; calls as there; RFP signal change, %; measured here: RFP expression control read;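 0 = vehicle wells; hits needed this value within 50% of zero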
Numbers without * were called inactive; i = inactive; . = no result given; & = joins results of further samples.

SMILES	MT1-MMP act inh	MT1-MMP act inh RFP	CSC inhib	UUG fidelity	Env fusion inh	eIF4H inh	PABP polyA inh	Rce1 inh	others
C=CCn1c(SCC(=O)Nc2cc(C)on2)nc2ccccc21	4	4	.	-23	11	.	.	.
CC(=O)c1cnc(Nc2cccc(C)c2)s1	-3	-4	5	.	-44	-3	-1	i
COCCCN(C(=O)Cc1csc(-c2cccc(Cl)c2)n1)c1c(N)n(Cc2ccccc2)c(=O)[nH]c1=O	-4	0	-12	4	-16	.	.	i
CCC1C/C(=C\c2cc(OC)c(OC)cc2OC)C(=O)/C(=C/c2cc(OC)c(OC)cc2OC)C1 (stereo unspecified)	-43	-14	6	.	.	30	-23	i
Cc1ccc(N(CC(N)=O)C2SC(=O)N(C)C2=O)cc1 (stereo unspecified)	-6	1	-8	-18	-45	-4	-6	i
COc1ccc([C@H]2C[C@H](n3cc(COC(=O)c4ccccc4)nn3)[C@@H](O)CN2Cc2cccs2)cc1	-2	-3	.	2	-41	.	.	.
COCCOc1nc2c(c(=O)n(C)c(=O)n2C)n1Cc1cccc(OC)c1	-6	-23	22	17	.	2	-6	i
CCN(CC)c1cc(NCCO)c([N+](=O)[O-])c2nonc12	0	0	-4	-35	17	4	0	i
COc1ccc(-c2cc(C(=O)N3CCCc4ccccc43)no2)cc1	12	-5	-4	-6	-18	-5	-6	i
CC1CCCCC1=NNC(=O)c1ccccc1 (stereo unspecified)	-1	2	.	-4	-12	.	.	.
COc1ccc(NC(=O)C2(C)Cc3c(-c4cccc(NC(C)=O)c4)ccnc3O2)cc1 (stereo unspecified)	38	-1	.	-2	-180	.	.	.
Clc1ccc(Cl)c(OCCCCN2CCNCC2)c1	3	2	96*	-7	10	-5	12	i
CCCc1cc(CNC(=O)C2CCC(=O)N(Cc3ccccc3OC)C2)on1 (stereo unspecified)	2	0	-7	-7	12	-11	6	i
CCN(CC)c1ccc(C2=NNC(=O)CC2C)cc1[N+](=O)[O-] (stereo unspecified)	8	-5	11	5	87*	0	-14	i
Cc1ccc(S(=O)(=O)N2CCOCC2)cc1NC(=O)COC(=O)c1ccc(Cl)s1	0	8	.	3	24	.	.	.
CS(=O)c1ccccc1-c1nc(-c2ccc(Cl)cc2)no1 (stereo unspecified)	3	-1	-5	.	-8	-9	-3	i
COc1cccc(OCc2cc(C(=O)N3CCC(c4ccncc4)CC3)no2)c1	1	-26	13	0	4	-16	-9	i
CN1CCN(S(=O)(=O)c2ccc3ccccc3c2)CC1	3	5	-9	-12	7	-12	2	i
CC(=O)n1cc(-c2ccncc2)c2ccccc21	-4	0	2	4	12	-9	6	i
Cc1cc(NC(=O)CSc2nc3c(sc4ccccc43)c(=O)n2CCCN2CCOCC2)n[nH]1	9	1	58	-6	-266	-3	-7	i
Cc1c(Cl)c(C(=O)N2CCCC2)nn1C	-5	0	-10	.	13	-1	12	i
CCCCN(C)C(=O)C1CCN(C/C(C)=C/c2ccccc2)CC1	-2	-4	14	9	.	3	23	.
C=CCn1c(CCc2ccccc2)nnc1SCC(=O)OC	3	-4	-7	-12	-32	-12	-5	i
Cc1ccc(NC(=S)NCCN(C2CCCCC2)C2CCCC2)cc1	2	1	19	.	4	-1	-10	i
COc1ccc(-n2c3c(cc(C(=O)NCC(=O)c4ccccc4)c2=O)C(=O)CC(C)(C)C3)cc1	.	.	5	-1	-177	14	9	i
Following part:
SMILES	MT1-MMP act inh	MT1-MMP act inh RFP	CSC inhib	UUG fidelity	Env fusion inh	eIF4H inh	PABP polyA inh	Rce1 inh	others
O=C(COc1ccc(NC(=O)c2ccccc2[N+](=O)[O-])cc1)c1ccc(F)cc1	0	1	6	-5	11	-1	3	i
CC1(C)Cc2c(sc(NC(=O)c3ccc(S(=O)(=O)N4CCCC4)cc3)c2C#N)C(C)(C)N1	3	3	-15	-7	2	-11	-14	i
Cc1ccc(OCC(O)Cn2c(N3CCCCC3)nc3c2c(=O)[nH]c(=O)n3C)cc1 (stereo unspecified)	3	-1	-3	0	-1	-5	8	i
CC(CCc1ccccc1)NC(=O)CSc1nnnn1C (stereo unspecified)	1	7	.	-14	.	-2	-6	i
O=C(c1cccc(Cl)c1)N1CCC(=O)N(C(COCc2ccccc2)Cc2ccccc2)CC1 (stereo unspecified)	-4	-4	-3	-15	33	-11	4	i
COc1cc(OC)cc(-c2oc3cccnc3c2C#CCCO)c1	-2	3	2	-16	-33	10	9	i
CCOc1ccccc1NC(=O)C1=C(C)NC(=S)NC1c1cccs1 (stereo unspecified)	-3	-1	-4	-26	14	-2	51*	i	eIF4H inh retest=36;PABP polyA inh retest=61*
COc1cccc(OCc2cc(C3Nc4ccccc4C(=O)N3Cc3ccco3)ccc2OC)c1 (stereo unspecified)	-7	-10	.	-15	.	7	-12	i
Cc1ccc2c(C)nc(Nc3nc(CSc4nc5ccccc5s4)cc(=O)[nH]3)nc2c1	-8	-10	.	-8	34	.	.	.
CC1C=CCC2C(=O)N(c3ccc(OC(=O)c4cccs4)cc3)C(=O)C12 (stereo unspecified)	-3	-6	-19	.	1	0	4	i
Cc1nn(CSc2c(F)c(F)c(F)c(F)c2F)c(C)c1[N+](=O)[O-]	-4	-4	4	11	.	.	.	.
CN1CCN(CCNC(=O)Nc2ccc(Cl)cc2)CC1	-1	4	-7	1	4	0	-7	i
COc1ccc(OC)c(Nc2nc(N)nc(-c3cc4ccccc4o3)n2)c1	-12	-7	-11	-10	.	-10	-7	i
CCOC(=O)C1CCCN(Cc2ccc(OCC)cc2)C1 (stereo unspecified)	-3	5	10	11	3	6	16	i
CCn1c(N)nc2ccccc21	4	9	-5	-9	.	2	3	i
Cc1ccccc1NC(=O)CNc1ccccc1C(=O)NCc1ccco1	3	1	-12	-14	.	8	10	i
COc1cccc(NC(=O)Cn2c(=O)c3c(ncn3Cc3ccccc3)n(Cc3ccccc3)c2=O)c1	-2	-3	-8	-21	.	2	0	i
C/C(=N\NC(=O)Cc1ccc(Cl)c(Cl)c1)c1cccnc1	4	-4	4	-10	-14	-5	-6	i
CC(=O)Nc1ccc(NC(=O)C(C)OC(=O)c2ccc(N(C)C)cc2)cc1 (stereo unspecified)	2	1	-28	-42	4	-6	-2	i
COCCCNC(=O)c1csc([C@@H]2C[C@H](O)[C@@H](CO)O2)n1	-1	3	.	-8	-4	.	.	.
N#C/C(=N/Nc1ccc(S(=O)(=O)N2CCOCC2)cc1)C(N)=O	0	2	0	-11	13	0	-10	i
O=c1cc(-c2ccc(Cl)cc2)nc(N2CCN(c3ccccc3)CC2)[nH]1	6	4	46	-3	-21	-10	-10	i
CCOC(=O)c1cc(C#N)c(N2CCCC2)nc1-c1ccccc1	-5	-5	18	-5	.	-2	-2	i
O=[N+]([O-])c1cccc(NNS(=O)(=O)c2ccccc2F)c1	7	3	.	-11	-6	0	34	i
CCOC(=O)c1c(C)oc(=O)c(CC)c1O	-5	3	.	-26	-4	.	.	.

Structures above that have an aryl thioether with sulfur outside any ring (six):
SMILES	MT1-MMP act inh	MT1-MMP act inh RFP	CSC inhib	UUG fidelity	Env fusion inh	eIF4H inh	PABP polyA inh	Rce1 inh	others
C=CCn1c(SCC(=O)Nc2cc(C)on2)nc2ccccc21	4	4	.	-23	11	.	.	.
Cc1cc(NC(=O)CSc2nc3c(sc4ccccc43)c(=O)n2CCCN2CCOCC2)n[nH]1	9	1	58	-6	-266	-3	-7	i
C=CCn1c(CCc2ccccc2)nnc1SCC(=O)OC	3	-4	-7	-12	-32	-12	-5	i
CC(CCc1ccccc1)NC(=O)CSc1nnnn1C (stereo unspecified)	1	7	.	-14	.	-2	-6	i
Cc1ccc2c(C)nc(Nc3nc(CSc4nc5ccccc5s4)cc(=O)[nH]3)nc2c1	-8	-10	.	-8	34	.	.	.
Cc1nn(CSc2c(F)c(F)c(F)c(F)c2F)c(C)c1[N+](=O)[O-]	-4	-4	4	11	.	.	.	.

Carrying on:
SMILES	MT1-MMP act inh	MT1-MMP act inh RFP	CSC inhib	UUG fidelity	Env fusion inh	eIF4H inh	PABP polyA inh	Rce1 inh	others
NC(=O)c1ccccc1NC(=O)CCc1ccccc1	3	2	23	5	.	-4	-2	i
COc1ccc(F)cc1-c1cc(C(=O)NCc2cccc(C(F)(F)F)c2)[nH]n1	1	0	.	-8	6	.	.	.
C=CCSC(CC)(CC)C(N)=O	-3	-2	-14	-16	12	-1	1	i
Cc1cc(Br)ccc1NC(=O)CN1C(=S)NC(C)(C)CC1C (stereo unspecified)	0	0	-1	.	-14	-12	-2	.
O=C(c1cccs1)N1CCCC(c2nc3c(nnn3Cc3ccc(F)cc3)c(=O)[nH]2)C1 (stereo unspecified)	-3	-5	15	-15	2	-10	-7	i
O=C(c1ccccc1F)N1CCN(S(=O)(=O)c2ccc(S(=O)(=O)N3CCCCCC3)cc2)CC1	3	-1	-8	-13	15	-13	1	i
O=[N+]([O-])c1ccc(S(=O)(=O)NN=C2CCCCC2)cc1	-1	5	.	-15	8	.	.	.
CC(=O)N1N=C(c2ccco2)CC1c1cc2ccc(C)cc2nc1Cl (stereo unspecified)	-3	-3	15	-9	2	-3	-8	i
Cc1sc(NC(=O)c2ccco2)c(C(c2cccnc2)N2CCCC2)c1C (stereo unspecified)	2	-8	.	-8	44	-5	4	i
CC(Sc1ccc(S(=O)(=O)N2CCOCC2)cn1)c1ccccc1Cl (stereo unspecified)	5	-7	15	4	17	.	.	.
Cc1ccc(-c2nnc(SCC(=O)NCC3CCCO3)nc2-c2ccc(C)cc2)cc1 (stereo unspecified)	-2	-3	.	-3	19	.	.	.
CS(=O)(=O)CCC(C(=O)Nc1ccc2c(c1)OCO2)N1Cc2ccccc2C1=O (stereo unspecified)	-2	-4	9	-14	-2	-17	-4	i
CCC(C)[C@H](NC(=O)N1CCn2c1nc1ccccc12)C(=O)NCc1ccc(OC)cc1 (stereo partly specified)	5	-2	12	.	21	-4	-3	i
CC(=O)Nc1ccc(SCC(=O)NNC(=O)CN(C)S(=O)(=O)c2ccc(C)cc2)cc1	1	0	.	-4	-8	.	.	.
C[C@H](NC(=O)[C@H](Cc1ccccc1)n1c(=O)[nH]c2ccccc2c1=O)C(=O)N1CCC(C(=O)O)CC1	2	4	-10	-11	.	-4	-6	i
Cc1ccc(S(=O)(=O)N2C[C@H]3n4c(=O)ccc(=O)n4C[C@H](OC(=O)NCC4CCCCC4)[C@@]3(O)C2)cc1	-1	-9	.	-12	25	.	.	.
CC(C)c1cc(CNC(=O)c2ccc(OC3CCN(Cc4ccccn4)CC3)cc2)on1	-2	-6	5	-13	-5	11	3	i
O=C(CCS(=O)(=O)c1cccc2nsnc12)N1CCN(Cc2ccc3c(c2)OCO3)CC1	-4	2	-16	-15	-75	-11	-7	i
COc1cccc(N2CCN(Cc3nc(N)nc(N4CCCc5ccccc54)n3)CC2)c1	-2	7	-10	-7	.	-15	-6	i
CC1CCN(C(=O)CN2C(=O)C(=O)N(C(C)C)C2=O)c2ccccc2S1 (stereo unspecified)	-1	2	.	-11	3	.	.	.
CN(C)c1ccc(NC(=O)c2cccc(N3C(=O)C4C5C=CC(C5)C4C3=O)c2)cc1 (stereo unspecified)	-3	-3	-2	-14	19	0	-5	i
Cc1ccccc1NC(=S)NCC1CCC(CNC(=S)Nc2ccccc2C)CC1 (stereo unspecified)	4	-1	-5	.	-8	1	16	i
COc1cc(NC(=O)C2CC(c3ccccc3Cl)=NO2)cc(OC)c1OC (stereo unspecified)	2	-20	1	-18	15	12	0	i
COc1ccc(NC(=O)N(C)C[C@H]2OCCCC[C@H](C)Oc3ccc(NC(=O)Nc4ccc5c(c4)OCO5)cc3C(=O)N([C@@H](C)CO)C[C@@H]2C)cc1	1	-6	.	2&3	-53	.	.	.
CS(=O)(=O)N1CCC(C(=O)NCc2ccccc2)CC1	5	3	-9	.	-4	-4	1	i
COc1ccccc1/C=C1/SC(=S)N(CCC(=O)Nc2cccnc2)C1=O	-1	-8	15	-1	-9	-16	-10	i

Screening data as filed in PubChem BioAssay.

These rows are one share of the data; count on the stated rates, not on these rows.
